CapD inh = blocks the Bacillus anthracis CapD enzyme; purified CapD enzyme, fluorescence intensity read-out; stronger effect = lower value; some hits fall short of the stated cut; z-score (concentration not given with the values); hit rate 0.23% among 140,000;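 active means z-score under -4 in either of two replicates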;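 further: stock transfer was 100 nL into about 40 µL; score is relative to mean and spread of the plate; one replicate is shown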
AID504770 = growth inhibitors of E. coli YBA685 in a screen for V. cholerae RctB (chromosome II replication) inhibitors; E. coli YBA685 rctB-dependent plasmid, OD600 growth, 3 h; stronger effect = lower value; hit rate 0.27% among 130,000; AID 504770; z-score (concentration not given with the values);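 active means z-score under -2 on both plates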;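 further: wells of about 30 µL received 100 nL stock; score is relative to mean and SD of the test wells; the first replicate is given; strong numbers were not always called active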
Numbers without * were called inactive; / = not tested or not shown.

| Molecule | CapD inh | AID504770 |
| --- | --- | --- |
| CCCc1c(-c2nc(-c3ccc(Cl)cc3)no2)cnn1-c1ccccc1 | 0.7 | 0.1 |
| COC(=O)C1=C(C(=O)OC)SC(=C2C(=S)C(C)(C)N(C(=O)CN3C(=O)c4ccccc4C3=O)c3cc(C)ccc32)S1 | 0.63 | / |
| CC(SC1CCCC1)C(=O)NC(C)(C#N)C(C)C (centres undefined) | / | 0.45 |
| CCCn1c(CCCNC(=O)c2ccccc2)nc2ccccc21 | 0.19 | 0.75 |
| Cc1sc2ncnc(SCC(=O)Nc3ccc4ccccc4c3)c2c1C | -0.05 | / |
| O=C(Nc1ccc(-c2nnc(-c3ccccc3)o2)cc1)C1CCCC1 | 41 | -0.8 |
| Cc1cc2c(cc1C)C(c1ccccc1Br)CC(=O)N2 (centres undefined) | 0.15 | / |
| O=C(CSc1nccc(C(F)(F)F)n1)c1ccc(Br)cc1 | -0.91 | -0.7 |
| COCCn1cnnc1SCC(=O)Nc1ccc(Cl)cc1F | / | -0.35 |
| CCN(CC)Cc1cc(NC2=NS(=O)(=O)c3ccccc32)ccc1OC(=O)c1ccccc1 | 0.43 | / |
| O=C(Nc1ccc(Cl)cc1)NC(C(=O)O)c1ccccc1 (centres undefined) | -0.18 | -0.9 |
| CC1CC(C)CN(C(=O)CSc2n[nH]c(N)n2)C1 (centres undefined) | / | -0.35 |
| CCCN(CC(=O)Nc1ccc(F)c(F)c1F)Cc1cc(=O)n2ccsc2n1 | / | -0.25 |
| CCC(=O)N1c2ccccc2NC2=C(C(=O)CC(c3ccccc3)C2)C1c1cccc([N+](=O)[O-])c1 (centres undefined) | -0.72 | / |
| CC1CCCCN1C(=O)CSc1nnc2ccccn12 (centres undefined) | 2.2 | -0.65 |
| CCOc1ccc(NC(=O)COn2nnc3ccc(S(=O)(=O)N4CCOCC4)cc32)cc1 | / | -0.25 |
| CCN(CC)S(=O)(=O)c1ccc(C(=O)Nc2c3c(nn2-c2ccc(C)cc2C)CS(=O)(=O)C3)cc1 | -0.32 | / |
| Cc1cc2c(=O)oc(-c3ccc(Br)cc3)nc2s1 | -0.085 | / |
| CCCn1cnc2cc(NCc3cccc(OC)c3)ccc21 | 6 | -0.05 |
| CC(C)NC(=O)C1c2ccccc2C(=O)N(C)C1c1cn(C)c2ccccc12 (centres undefined) | 0.32 | -0.05 |
| O=C(O)c1ccc(-n2c(-c3ccccc3)cc3c2CCCC3=O)cc1 | 0.65 | -0.25 |
| O=C(Nc1ccc(F)cc1)C(=S)NC1CCCCC1 | -0.075 | 1.4 |
| N#CCNS(=O)(=O)c1ccccc1 | / | -0.2 |
| Cc1ccc(S(=O)(=O)N2CCN(C(=O)c3n[nH]c(=O)c4ccccc34)CC2)cc1 | / | 2.4 |
| Cc1cccc(Nc2nnc(-c3ccc(C)c(S(=O)(=O)NCCO)c3)c3ccccc23)c1 | -0.17 | -1.2 |
| COc1ccc(NC(=O)COC(=O)C23CCC(=O)N2c2ccccc2S3)cc1 (centres undefined) | / | -0.35 |
| O=C(CNc1cccc(F)c1)N1CCc2ccccc2C1 | 0.18 | 0.2 |
| COCCCN1CC23C=CC(O2)C(C(=O)OC)C3C1=O (centres undefined) | 0.4 | -2 |
| COc1ccc(-c2cc(C(F)(F)F)n3ncc(C(=O)NCCc4c[nH]c5ccc(O)cc45)c3n2)cc1OC | -0.87 | / |
| O=C(Oc1ccc(OCc2ccccc2)cc1)c1ccc(-n2cnnn2)cc1 | -0.43 | -0.2 |

Later entries:
| Molecule | CapD inh | AID504770 |
| --- | --- | --- |
| Cc1ccc(C2C3C(=O)N(c4ccc(F)cc4)C(=O)C3N3CCCN23)cc1 (centres undefined) | -0.32 | / |
| CN(C)CCSc1nc(O)c(-c2ccccc2)c(=O)n1-c1ccccc1 | -0.22 | -0.6 |
| CN(Cc1nc(-c2ccccc2)no1)S(=O)(=O)c1ccccc1 | -0.78 | -0.3 |
| C=CCN1C(=O)C(=O)/C(=C(/O)c2ccc(C)cc2)C1c1cccc(F)c1 (centres undefined) | 0.09 | / |
| CCCCCC1(C)NC(=S)N(c2ccc(Cl)cc2)N1 (centres undefined) | -0.24 | / |
| Cc1c(C(=O)Nc2c(F)cc(F)cc2Br)sc2ncn(CC(=O)N3CCCCC3)c(=O)c12 | -0.29 | / |
| O=S(=O)(NC1CCCCC1CO)c1ccc(Br)cc1 (centres undefined) | 0.41 | / |
| COC(=O)c1cc(OC(=O)c2ccccc2Br)n(C)n1 | -2.1 | -0.15 |
| Cc1csc(=O)n1CN1CCN(C(=O)C2COc3ccccc3O2)CC1 (centres undefined) | / | 1.5 |
| CC(C)(CNC(=O)c1oc(=O)c2ccccc2c1-c1ccccc1)N1CCCCC1 | -0.74 | -0.3 |
| COc1ccc(-c2nsc(SCC(N)=O)n2)cc1 | 0.23 | -0.05 |
| COc1ccc2[nH]cc(NC(=O)NCCO)c(=O)c2c1 | / | -1 |
| CCOc1ccc(/C=N/OC(C)C(=O)NCc2ccc3c(c2)OCO3)cc1 (centres undefined) | / | -0.2 |
| O=C(NC(Cc1c[nH]c2ccccc12)C(=O)OCc1ccccc1)OCC12CC3CC(CC(C3)C1)C2 (centres undefined) | 0.3 | / |
| O=C(Nc1ncccc1O)c1ccc(Oc2ccccc2)cc1 | -0.69 | 1.4 |
| CN(C(=O)CCC(=O)O)C1CCCCC1 | -0.47 | -0.6 |
| COc1ccc(CCNC(=S)NCCc2ccccc2)cc1OC | -0.38 | -0.85 |
| O=C(Nc1cccc(C(F)(F)F)c1)c1ccc(-c2ccccc2)cc1 | 47 | 1.1 |
| O=C1CCCN1CCCNCc1ccc(-n2cnc3ccccc32)cc1 | / | 0.35 |
| COc1ccc(OC)c(-c2c[n+](=O)c3c(n2[O-])CCCC3)c1 | / | 1.7 |
| CCOC(=O)c1ccccc1NC(=O)/C=C1/Nc2ccccc2NC1=O | / | -0.95 |
| CC(CC(=O)N1CCCCCC1)c1ccccc1 (centres undefined) | 0.25 | 0.2 |
| Cc1ccc(N=C2c3ccccc3-c3nc4ccccc4cc32)cc1 | -0.4 | / |
| O=C(Cn1ncc2c3ccccc3n(Cc3ccccc3)c2c1=O)NCCc1ccccc1 | 5.1 | 0.45 |
| CC1CC(Nc2ncnc3c2cnn3C)CC(C)(C)C1 (centres undefined) | / | -0.35 |
| COc1ccc(C(=O)NCc2cc3cc(Cl)ccc3[nH]2)cc1COc1ccccc1Cl | -0.22 | 0.15 |
| COc1cc(C2NC(=O)NC(C)=C2C(=O)OCCSC)cc(Br)c1O (centres undefined) | -1.1 | / |
| Cc1cc(=O)[nH]c(Nc2nc3ccccc3s2)n1 | 1.1 | -0.5 |
| COC(=O)c1ccc(NC(=O)CC23CC4CC(CC(C4)C2)C3)cc1 | -0.18 | 0.7 |
| CCOC(=O)C1CCN(C(=S)Nc2cccc(OC)c2)CC1 | 0.08 | / |

More structures
| Molecule | CapD inh | AID504770 |
| --- | --- | --- |
| O=C(NC1CCCC1)c1oc(=O)c2ccccc2c1-c1ccccc1 | -0.28 | 0.15 |
| Cc1c2c(n3c(nc4ccccc43)c1C#N)N(CCN1CCOCC1)CC2 | / | -0.1 |
| Cc1ccc(C)c(OCc2nnc(SCN3C(=O)c4ccccc4C3=O)o2)c1 | / | -0.5 |
| CCOC(=O)C1=NOC(C(=O)NN(C)c2ncc(C(F)(F)F)cc2Cl)C1 (centres undefined) | -0.23 | / |
| CC(=O)Nc1cc(NC(C)=O)c2nc(N)sc2c1 | -0.21 | 0.15 |
| Cc1cccc(Nc2nnc(SCC(=O)Nc3sccc3C#N)s2)c1C | / | -0.6 |
| CC1=C(C(=O)Nc2cccc(Cl)c2)C(c2ccc(Br)cc2)NC(=O)N1 (centres undefined) | -0.29 | / |
| O=C(CNCC1CCCCC1)Nc1ccccc1N1CCCCC1 | / | 0.1 |
| CC(=O)N(c1ccccc1)c1nc(COC(=O)c2cnc(C)cn2)cs1 | / | -0.8 |
| CS(=O)(=O)/C(C#N)=C/c1ccsc1/C=C(\C#N)S(C)(=O)=O | -1.4 | 2.4 |
| COc1ccc(CCNC(=O)CSc2nnc3sc4ccccc4n23)cc1 | / | -0.1 |
| CN1C(=O)c2ccccc2C(C(=O)NCCN(Cc2ccco2)C2CCCC2)C1c1cccs1 (centres undefined) | -0.16 | -1.4 |
| O=c1c2c3nc4ccccc4nc3n(Cc3ccco3)c2ncn1Cc1ccco1 | 35 | 2.5 |
| COc1ccc(-c2cc3ccccc3n2CC(O)CNCc2ccccc2)cc1 (centres undefined) | 5.6 | 0.4 |
| Cc1ccc(C(=O)N/C(=C\c2cccs2)C(=O)N2CCN(c3ccccn3)CC2)cc1C | -0.035 | / |
| CSc1nc(NC(=O)C(F)(F)F)cc(=O)[nH]1 | -0.98 | 3.2 |
| COc1ccccc1NC(=O)C12CC3CC(CC(C3)C1)C2 | -0.49 | -0.7 |
| O/N=C1\CCOc2ccc3ccccc3c21 | -0.32 | 1.9 |
| COc1cc(-n2cnc3cc(C(=O)NCc4ccc(C)cc4)ccc32)cc(OC)c1OC | -0.12 | / |
| c1cn(-c2ccc(-c3ccno3)cc2)cn1 | 0.12 | 0.8 |
| N#Cc1c(N)nc(SCC(=O)c2ccc(Br)cc2)c(C#N)c1-c1ccc(O)cc1 | 3.4 | / |
| COc1ccc(/C=N/NC(=S)NC(C)C)cc1 | / | -0.45 |
| O=C(COC(=O)Cn1ccc(=O)[nH]c1=O)Nc1ccc(F)cc1 | / | 0.25 |
| O=C(Nc1cccc2nsnc12)c1ccc2c(c1)OCCO2 | -0.05 | / |
| CC1(C)CC(=O)C2=C(C1)N(c1ccc(Br)cn1)C(N)=C(C#N)C2c1ccsc1 (centres undefined) | -0.51 | / |
| O=C1OC(N2CCOCC2)c2ccccc21 (centres undefined) | / | -0.3 |
| Cc1ccc(-c2csc(C)n2)cc1 | 0.53 | / |
| O=C(O)C1CC=CCC1Cc1ccccc1 (centres undefined) | / | -1.2 |
| O=C(NS(=O)(=O)c1ccccc1)c1ccccc1 | 0.01 | -0.55 |
| COc1ccccc1-n1c(=S)sc2c(=O)n(Cc3ccco3)c(SC)nc21 | 0.41 | / |

(listing goes on)
| Molecule | CapD inh | AID504770 |
| --- | --- | --- |
| COC(CNC(=O)CN1CCN(Cc2ccccc2)C1=O)OC | 0.83 | -0.2 |
| C#CC(C)(C)N1CNC(=S)NC1 | 1 | / |
| C=CCSc1nc(O)c(CC(C)C)c(=O)[nH]1 | / | -0.8 |
| COC(=O)C1C(=O)/C(=C/N(C)C)C(=O)CC1(C)C (centres undefined) | / | 2.4 |
| C/C(=N\NC(=O)COc1ccccc1)C1C(=O)c2ccccc2C1=O | / | 0.25 |
| Cc1cc(C)c(-c2ccn[nH]2)[nH]1 | 3 | 0.65 |
| COc1ccc2[nH]c3c(c2c1)CCN1C[C@H]2C[C@@H](OC(=O)c4cc(OC)c(OC)c(OC)c4)[C@H](OC)[C@@H](OC(C)=O)[C@H]2C[C@H]31 | -0.23 | / |
| O=C1CSC(c2ccccc2)c2c(n(C3CCCC3)[nH]c2=O)N1 (centres undefined) | 0.12 | -0.35 |
| CCOc1ccc(-c2nc3s/c(=C\C4=Cc5ccccc5OC4)c(=O)n3n2)cc1 | 0.86 | 0.15 |
| Cn1c(SCC(N)=O)nnc1-c1c[nH]c2ccccc12 | -0.35 | -1.1 |
| NS(=O)(=O)c1ccc(CNC(=O)/C=C/c2ccccc2)cc1 | -0.08 | -0.7 |
| O=C(c1csc2c1CCCC2)N1CCN(S(=O)(=O)c2cccs2)CC1 | / | -0.7 |
| O=C(O)CC12CC3CC(C1)CC(CC(=O)O)(C3)C2 | -0.33 | -0.2 |
| Cc1ccc2[nH]c3c(c2c1)CCCC3C(=O)O (centres undefined) | 4.6 | -0.5 |
| COC(=O)CCc1n[nH]c(=O)[nH]c1=O | 0.04 | 0.1 |
| CCCC12CN3CC(C)(CN(C1)C3c1c(C)n(C)c3ccccc13)C2=O (centres undefined) | -0.3 | 0 |
| O=C(OCC(=O)N1N=C2/C(=C/c3ccco3)CCCC2C1c1ccco1)c1ccccn1 (centres undefined) | / | -0.05 |
| O=c1ncn(-c2ccccc2)[nH]1 | -0.41 | 1.1 |
| Cc1nn(-c2ccc(Cl)cc2)c(N)c1C1(O)C(=O)Nc2ccc(F)cc21 (centres undefined) | / | 1.2 |
| CCOC(=O)c1[nH]c(=O)[nH]c1CSC(=N)N | / | 0.1 |
| CC(C(=O)Nc1ccccc1C(=O)N1CCCC1)n1nnc2ccccc21 (centres undefined) | / | 0.65 |
| NNC(=O)C1CCCNC1=O (centres undefined) | 122 | -0.65 |
| O=C1C(Br)=CC(=CN(O)c2ccccc2)C=C1Br | -0.54 | 1 |
| O=C(O)c1ccc(OCCN2CCCC2=O)cc1 | / | -0.5 |
| CC(NC(=O)COc1ccccc1C(C)(C)C)c1ccccc1 (centres undefined) | -3.7 | 0.25 |
| C=CCn1c(SCC(=O)CC(=O)OCC)nc2cc(C(=O)N3CCC(C(N)=O)CC3)ccc2c1=O | -0.26 | / |
| O=[N+]([O-])c1c(Nc2ccc(Cl)cc2)cc(N2CCCCC2)c2nonc12 | 0.08 | / |
| Cc1[nH]c2ccc(CN)cc2c1C | 1.4 | -0.35 |
| COc1cc(OC)nc(CSc2ccc(NC(=O)c3ccc([N+](=O)[O-])cc3)cc2)n1 | -0.17 | / |
| Cc1cc(-c2nc(C(=O)N3CCCCC3)cs2)no1 | 11 | -0.95 |

High-throughput results (PubChem BioAssay)
